Source: PubChem (several laboratories)
Beta cell apopt = blocks beta cell apoptosis; actives 0.8% (n = 300,000); protection from apoptosis, % (no concentration beside the values); INS-1E cytokine-induced death, ATP luminescence, 48 h; percent of positive-control rescue, neutral wells zero;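 active = all replicates at 75% or more, or half of them and the mean; inconclusive = half reach 75% but not the mean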;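 note: 0% = cytokine-treated negative control wells and 100% = positive control rescue; higher means more ATP so stronger rescue from cytokine killing; wells of about 40 µL received 100 nL stock; the first replicate is given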
Beta2AR agonist = activates human beta-2 adrenergic receptor causing internalization; Am2.2-beta2AR cells, FAP receptor internalization, flow cytometry; reference of the scale not given here; actives 0.43% (n = 340,000); AID 504454; P07550; response, % (concentration not given with the values);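 active = response above a set limit, near 3 SD of response in nonfluorescent compounds, cut at about 42% in these data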;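 note: stock transfer was 100 nL into about 11 µL; a reference agonist was the positive control; negative values mostly stem from fluorescent compounds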
Target sequence (P07550 whole entry, looked up): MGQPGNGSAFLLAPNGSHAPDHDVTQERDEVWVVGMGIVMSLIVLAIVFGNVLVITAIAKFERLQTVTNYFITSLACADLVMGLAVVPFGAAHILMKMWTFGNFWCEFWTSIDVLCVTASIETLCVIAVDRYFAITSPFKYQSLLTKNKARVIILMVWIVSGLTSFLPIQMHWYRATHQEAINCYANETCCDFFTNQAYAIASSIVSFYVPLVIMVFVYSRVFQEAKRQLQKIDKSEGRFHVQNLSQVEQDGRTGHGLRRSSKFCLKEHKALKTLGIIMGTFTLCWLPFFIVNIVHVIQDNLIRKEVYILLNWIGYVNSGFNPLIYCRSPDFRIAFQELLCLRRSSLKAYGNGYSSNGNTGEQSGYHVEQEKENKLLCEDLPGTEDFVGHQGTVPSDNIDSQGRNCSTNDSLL
UCH37 DUB inh = inhibitors of human deubiquitinating enzyme UCH37 | purified proteasome/UCH37, Ub-AMC cleavage fluorescence | inhibition, % (test concentration not listed) | actives 0.33% (n = 330,000) | AID 588478 | Q9Y5K5;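 active = mean of two replicates above 20%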;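 note: 0% = compound-free wells with enzyme and 100% = wells lacking proteasome; stock transfer was 100 nL into about 20 µL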
Target sequence (Q9Y5K5 whole entry, looked up): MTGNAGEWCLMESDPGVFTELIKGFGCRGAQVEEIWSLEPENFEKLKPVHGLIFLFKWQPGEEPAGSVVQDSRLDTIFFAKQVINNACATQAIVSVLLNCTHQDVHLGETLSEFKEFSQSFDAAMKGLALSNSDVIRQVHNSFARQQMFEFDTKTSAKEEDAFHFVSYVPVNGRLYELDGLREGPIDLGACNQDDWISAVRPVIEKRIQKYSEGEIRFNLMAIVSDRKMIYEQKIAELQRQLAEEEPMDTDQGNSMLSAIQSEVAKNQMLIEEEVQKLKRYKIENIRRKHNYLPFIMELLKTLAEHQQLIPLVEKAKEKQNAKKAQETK
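system = Proteasome-associated human UCH37 deubiquitinase | amount = 0.15 nM proteasome as dispensed | medium = pH 7.4 Tris-HCl (50 mM) with ovalbumin, ATP-MgCl2, DTT | incubation = 30 min preincubation with enzyme, 25 min cleavage at room temperature | detection = AMC fluorescence 355/460 nm | read-out basis = percent inhibition | controls = no-proteasome and no-compound wells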
Bfl-1 A1 inh = inhibitors of the anti-apoptotic protein A1, read as caspase activation. MEF A1-2A-BIM cells, Caspase-Glo 3/7 luminescence, 3 h; percent of clofoctol response, vehicle zero. caspase activation, % (concentration not given with the values). actives 0.066% (n = 330,000);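 active = over half of replicate activation scores above 10%, or exactly half above 10 with the replicate mean above 10; inconclusive = replicate mean below 10 yet half the replicates above 10; inactive = over half of replicates below 10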;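 note: wells of about 30 µL received 50 nL stock; many hits fall short of the cut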
Calb FLC = affects C. albicans growth with fluconazole. growth inhibition, % (test concentration not listed). C. albicans CaCi-2 (fluconazole-resistant clinical isolate) + fluconazole, Alamar Blue growth, 48 h. actives 0.57% (n = 300,000);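 active = most replicates above 75%; inconclusive = exactly half above 75%; inactive = most below 75%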;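 note: all wells also contain fluconazole at 8 µg/ml as a sub-toxic cotreatment; 0% = median of DMSO wells and 100% = median of geldanamycin control wells; wells of about 8 µL received 7.5 nL stock; the first replicate is given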
LANA-H2A inh = blocks KSHV LANA binding to histone H2A/H2B. AID 2629. Q9QR71. cell-free LANA-H2A/H2B peptide, fluorescence polarization. actives 0.6% (n = 320,000). inhibition, % (test concentration not listed); in the data active = inhibition mostly above about 10%, no sharp cut-off; inactive = mostly below about 6.7%;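 note: stock transfer was 7.5 nL into about 10 µL; 0% = median of vehicle wells and 100% = median of positive control wells; one replicate is shown; the record names a cut of 25% in any replicate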
RanGTP-Impb inh = inhibitors of RanGTP-importin-beta interaction, primary screen, biochemical, FRET, CFP-Ran, YFP-importin-beta, homogeneous. cell-free CFP-Ran/YFP-importin-beta FRET ratio. inhibition, % (no concentration beside the values). actives 1.1% (n = 300,000). AID 2216;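 active = most replicates above 15%; inconclusive = exactly half above 15%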;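 note: 0% = DMSO wells and 100% = Ran loaded with GDP instead of GTP; wells of about 40 µL received 100 nL stock; the first replicate is given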
T cruzi inh = blocks replication of Trypanosoma cruzi; T. cruzi beta-gal in NIH3T3, luminescence, 90 h; inhibition, % (no concentration beside the values); actives 1.4% (n = 300,000); AID 1885;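 active = mean inhibition across valid replicates above about 55%, limit read from the data; inconclusive = mean below that limit but half or more replicates reach it; inactive = mean below it, under half of replicates reach it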;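 note: signal also drops with host cell toxicity which is not excluded here; 0% = plate median of DMSO wells and 100% = zero luminescence signal; higher percent means less beta-gal luminescence so fewer parasites; stock transfer was 50 nL into about 50 µL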
Starred values were filed as active, the others as inactive; ? = inconclusive; nt = no result given.

SMILES,Beta cell apopt,Beta2AR agonist,UCH37 DUB inh,Bfl-1 A1 inh,Calb FLC,LANA-H2A inh,RanGTP-Impb inh,T cruzi inh
CCc1nnc(NC(=O)c2ccc(S(=O)(=O)N3CCCCC3C)cc2)s1 (stereo unspecified),-6.3,3.6,-0.4,0.4,4.5,0.4,0.7,6.9
CCOc1ccc(NC(=O)CN2C(=O)C3CC=CCC3C2=O)cc1 (stereo unspecified),-4.7,7.4,3.2,-0.2,-8.9,-0.9,2.2,5.7
COc1ccc(-n2c(C)cc(C(=O)Cn3nc(C(=O)O)c4ccccc4c3=O)c2C)cc1,-8.4,11.3,0.7,0.4,10.5,-1.3,-1.9,11.3
NNC(=O)c1cccc(COc2cccc(Br)c2)c1,1.2,2.6,2.4,-0.7,-2.0,-0.9,-2.1,7.1
COc1cccc(OC)c1C(=O)NC(C)C12CC3CC(CC(C3)C1)C2 (stereo unspecified),-0.4,6.7,0.9,0.8,-8.5,0.1,-0.6,23.6
CC1=C(C(=O)OCC(C)C)[C@]23C(=O)c4ccccc4[C@@]2(O1)OC(N)=C3C#N,-0.7,0.4,5.5,0.7,4.7,7.0,2.8,6.2
COc1cccc(NS(=O)(=O)c2ccc3c(c2)NC(=O)C(C)S3)c1 (stereo unspecified),-1.6,-0.5,2.0,0.2,-12.8,-6.9,0.5,-1.7
CCOc1ccc(NC(=O)CSc2nnnn2-c2ccc(C(N)=O)cc2)cc1,nt,-15.8,-1.1,0.1,2.9,1.3,-2.8,-0.3
CC(C)c1ccccc1OCC(=O)N1CCCCCCC1,1.3,-1.3,6.1,-0.8,1.5,-7.3,-0.5,5.6
CCOC(=O)C1=CSC2=NS(=O)(=O)CCN12,2.5,-1.5,3.7,0.3,5.9,2.9,?,-13.1
Cc1ccccc1Cn1c2ccccc2c2cnn(CC(=O)NCc3ccccn3)c(=O)c21,-3.7,-3.8,-16.1,1.0,-7.8,-3.3,3.7,15.8
Cc1cc2cc(C(c3nnnn3Cc3ccco3)N3CCc4ccccc43)c(=O)[nH]c2cc1C (stereo unspecified),-6.8,-4.1,-90.0,-0.2,0.0,-3.9,11.3,9.4

(list continues)
SMILES,Beta cell apopt,Beta2AR agonist,UCH37 DUB inh,Bfl-1 A1 inh,Calb FLC,LANA-H2A inh,RanGTP-Impb inh,T cruzi inh
Cc1ccc(NC(=O)c2ccsc2)cc1NS(C)(=O)=O,0.5,-16.0,4.1,0.0,8.0,-2.7,3.5,9.3
O=C(COc1ccccc1F)NCc1ccc(-n2cccc2)cc1,-3.6,-93.1,-0.5,0.4,-7.2,0.1,2.6,25.9
O=C(Nc1cccc(-c2nn[nH]n2)c1)c1cccs1,-3.8,-3.7,2.0,0.7,2.0,-3.3,0.5,9.6
COCC(=O)N/N=C(\C)CC(=O)NCc1ccco1,nt,9.6,nt,0.9,-9.5,-0.3,5.1,-21.0
COc1ccc(CNC(=O)CCCSc2ccccc2)cc1,-3.1,-2.1,6.2,0.5,1.9,1.3,0.7,-7.1
COC(=O)CSc1nc2cc3c(cc2cc1C)OCCO3,-0.8,6.0,3.6,-0.4,51.6,-4.7,2.1,-10.2
COc1ccc(OC)c(C2C(C(N)=O)=C(C)Nc3nc(-c4cccc(Cl)c4)nn32)c1 (stereo unspecified),-4.9,-3.3,1.4,0.8,5.1,-0.5,-2.2,6.4
Cc1ccc2nc(NC(=O)c3ccco3)sc2c1,10.5,-12.2,2.1,-9.0,-19.8,1.5,2.5,-1.5
CO/C([O-])=N/c1c[n+](-c2ccc(Cl)cc2)no1,-7.5,-3.4,1.2,0.8,-45.2,2.5,1.6,-0.6
O=Cc1ccc(OC(=O)CCCCC(=O)Oc2ccc(C=O)cc2)cc1,-3.1,4.9,7.0,-2.3,-4.8,-5.5,4.3,-15.8
CCOc1cc(N2CCOCC2)c(OCC)cc1NC(=O)COc1cccc(CC)c1,9.5,6.2,5.5,0.0,nt,nt,nt,nt
COc1ccc(NC(=O)CCNC(=O)Cn2cnc3ccccc3c2=O)cc1OC,nt,3.1,1.3,-0.7,0.5,-7.6,1.4,-2.6

(continued)
SMILES,Beta cell apopt,Beta2AR agonist,UCH37 DUB inh,Bfl-1 A1 inh,Calb FLC,LANA-H2A inh,RanGTP-Impb inh,T cruzi inh
CC1CCCN(C(=O)Cn2c(=O)oc3ccccc32)C1 (stereo unspecified),-2.3,-3.1,-0.3,0.3,-3.3,3.9,-0.2,11.5
COc1ccc(-n2nnnc2SCC(=O)NC2CCCC2)cc1OC,-4.0,-1.2,2.7,-0.2,5.5,0.5,-4.4,2.7
CCOc1ccccc1NC(=S)N1CCN(c2ccc(OC)cc2)CC1,0.9,0.9,4.3,2.2,2.1,-8.2,-1.9,-0.8
CCc1c(C)sc(NC(=O)CN2CCN(C(=O)c3ccco3)CC2)c1C(=O)OC,31.7,12.4,4.0,-0.7,-4.9,-2.5,-4.3,32.1
COc1cc(C(=O)NNC(=O)/C=C/c2ccco2)cc(OC)c1OC,0.6,2.3,2.0,0.6,nt,-0.9,nt,nt
O=C(CSc1nnc(-c2cnccn2)n1Cc1ccco1)c1ccc(Cl)cc1,nt,0.1,3.4,-0.2,13.1,1.8,0.0,2.8
CCCc1nc2c(C)ccc(C)c2c(N)c1CC,5.1,-0.5,-13.8,1.0,-1.2,-0.8,1.1,14.9
Cc1ccccc1C(=O)c1cccn1CC(=O)NCc1ccc(F)cc1,-2.6,-3.3,2.1,1.0,-12.4,-7.9,20.7,4.3
COc1ccc(CC(=O)Nc2ccccc2Oc2ccccc2)cc1,0.2,nt,nt,-1.6,-10.2,-1.0,3.0,10.7
N#CCC(=O)N1CCN(Cc2ccc3c(c2)OCO3)CC1,-1.7,-7.5,3.3,0.2,0.1,-0.4,7.1,-24.8
CCOc1ccccc1-c1cc(C(=O)N2CCOCC2)c2ccccc2n1,-3.5,-3.0,-2.2,0.3,-3.1,1.6,-2.3,-0.7
COc1ccc(C)cc1NS(=O)(=O)c1ccc(NS(=O)(=O)c2ccc(NC(C)=O)cc2)cc1,-1.8,7.2,1.3,-0.3,5.9,-5.2,3.6,-10.3

(cont.)
SMILES,Beta cell apopt,Beta2AR agonist,UCH37 DUB inh,Bfl-1 A1 inh,Calb FLC,LANA-H2A inh,RanGTP-Impb inh,T cruzi inh
CC(C)CCNCC1OCc2ccccc2CO1,-5.5,9.6,3.4,0.5,-12.6,-3.0,-2.7,-4.7
CCN(CC)CCOC(=O)c1c(C)n(C)c2ccc(OC)cc12,6.1,-11.0,3.0,2.1,-5.7,-6.2,-2.7,23.0
CC1CN(S(=O)(=O)c2ccccc2)CN1C(=O)N1CCOCC1 (stereo unspecified),-2.4,4.2,2.4,0.1,12.4,-6.6,-3.0,-10.6
CCOC(=O)c1ccc(Nc2cc(C)nc(-c3ccccc3)n2)cc1,7.2,0.8,nt,-0.3,24.7,0.2,1.7,27.1
C=C(C)c1cccc(C(C)(C)NC(=O)Nc2ccc(C(N)=O)cc2)c1,-9.7,0.9,2.6,-0.6,83.5*,-0.5,-3.9,-7.8
Cc1ccnc2c1NC(=O)c1cccnc1N2C1CC1,nt,1.2,-2.3,-0.7,-11.0,-0.1,0.4,-6.2
COc1cc(NC(=O)c2c(F)cccc2F)c(Cl)cc1Cl,nt,-0.9,1.0,0.7,-16.9,7.4,-1.5,-4.6
CC(=O)N(NC(N)=O)C(C)CC(=O)C1C(C)C=CCC1(C)C (stereo unspecified),-0.4,-2.4,1.9,0.2,-11.5,-0.2,-2.4,-5.7
CCOC(=O)c1ccc(S(=O)(=O)n2c(CN3CCCCC3)nc3ccccc32)cc1,-4.4,-0.3,0.5,-1.9,28.2,-3.5,-1.2,24.7
CC1CC(C)CN(C(=O)CSC2=Nc3ccccc3C3=NC(Cc4c[nH]c5ccccc45)C(=O)N23)C1 (stereo unspecified),8.3,4.8,2.5,nt,-0.4,6.6,3.7,28.5
Cc1cc(C)c(OCC(O)CNC(C)(C)C)c(C)c1 (stereo unspecified),?,-1.2,3.9,-1.0,-1.0,-2.6,1.4,7.5
Cc1ccc(S(=O)(=O)N(C)c2ccc(OCC(=O)N3CCCC(C(F)(F)F)C3)cc2)cc1 (stereo unspecified),-3.6,-9.8,0.6,-0.3,5.9,0.4,-1.1,28.1

Following part
SMILES,Beta cell apopt,Beta2AR agonist,UCH37 DUB inh,Bfl-1 A1 inh,Calb FLC,LANA-H2A inh,RanGTP-Impb inh,T cruzi inh
O=C(Nc1ccc([N+](=O)[O-])cc1)c1nc[nH]c1C(=O)NC1CCCCC1,62.8,3.7,6.5,47.4*,-6.3,-1.3,-1.7,-25.1
O=C(CN1CCOCC1)Nc1c(C(=O)C2CC2)oc2ccccc12,-9.3,-2.2,2.1,0.0,-27.9,1.2,6.7,-22.1
CCn1c2ccccc2c2cc(NC(=O)c3ccc(Br)o3)ccc21,-10.1,-72.1,1.3,0.8,-11.0,1.4,-12.0,0.7
Cn1c(=O)[nH]c(=O)c2c1nc(SCCCO)n2CCCc1ccccc1,-1.1,0.1,1.5,-1.2,11.1,-4.1,-2.3,18.3
Cc1cccc(N2C(=O)N3[C@H](c4ccc(Br)cc4)[C@@H]4C(=O)N(C(C)(C)C)C(=O)[C@@H]4[C@]3(C)C2=O)c1,0.8,-2.6,0.7,-1.3,12.5,2.6,-2.1,-13.1
COc1ccc(C2C3C=CCC(c4cccc(-c5ccc(C)cc5)c4)C3C(=O)N2Cc2ccccc2)cc1Cl (stereo unspecified),-5.4,1.3,5.7,0.4,-30.0,-1.2,-0.2,14.0
NC(=O)[C@@H]1CCCCNc2c(F)cc([N+](=O)[O-])cc2C(=O)N[C@@H](CC(=O)O)C(=O)NCC(=O)N1,0.5,-6.1,6.1,0.4,-14.6,-1.8,0.0,-1.6
CCN(CC)C(=O)C1=C(C)NC(=S)NC1c1cn(-c2ccccc2)nc1-c1ccc(Cl)cc1 (stereo unspecified),0.4,2.3,-8.5,0.2,25.1,2.8,2.9,22.5
Cn1c(=O)c2c(nc(Br)n2Cc2ccc3ccccc3c2)n(C)c1=O,16.6,0.7,7.8,-1.1,-8.3,4.2,2.5,-17.2

Compounds shown so far that have bromine:
SMILES,Beta cell apopt,Beta2AR agonist,UCH37 DUB inh,Bfl-1 A1 inh,Calb FLC,LANA-H2A inh,RanGTP-Impb inh,T cruzi inh
NNC(=O)c1cccc(COc2cccc(Br)c2)c1,1.2,2.6,2.4,-0.7,-2.0,-0.9,-2.1,7.1
CCn1c2ccccc2c2cc(NC(=O)c3ccc(Br)o3)ccc21,-10.1,-72.1,1.3,0.8,-11.0,1.4,-12.0,0.7
Cc1cccc(N2C(=O)N3[C@H](c4ccc(Br)cc4)[C@@H]4C(=O)N(C(C)(C)C)C(=O)[C@@H]4[C@]3(C)C2=O)c1,0.8,-2.6,0.7,-1.3,12.5,2.6,-2.1,-13.1
Cn1c(=O)c2c(nc(Br)n2Cc2ccc3ccccc3c2)n(C)c1=O,16.6,0.7,7.8,-1.1,-8.3,4.2,2.5,-17.2
